Source: PubChem
Vaccinia mCherry = qHTS for Stage-Specific Inhibitors of Vaccinia Orthopoxvirus: mCherry Reporter Primary qHTS; Vaccinia virus mCherry reporter infection, fluorescence; about a quarter of the inactives have no number; Potency, µM (highest dose often 36.5 µM), inactives show at the top dose activity change, negative = inhibition, hits mostly inhibitors; 310,000 compounds, 0.63% hits; active = well fitted inhibition curve with a large enough effect; inconclusive = small, poorly fitted or top-dose-only effect; inactive = no such curve, though single readings can be large or run the other way; tested in A549 cells; further: nearly all actives have a fitted effect of over 35% in size; inactives centre near -10
Vaccinia Venus = qHTS for Stage-Specific Inhibitors of Vaccinia Orthopoxvirus: Venus Reporter Primary qHTS; 330,000 compounds, 0.46% hits; Potency, µM (top dose mostly 36.5 µM), for the others: at the highest dose activity change, negative = inhibition, hits mostly inhibitors; Vaccinia virus Venus reporter expression, fluorescence; AID 720580, 2013; active means well fitted inhibition curve with a large enough effect; inconclusive means small, poorly fitted or top-dose-only effect; inactive means no such curve, though single readings can be large or run the other way; tested in A549 cells; further: nearly all actives have a fitted effect of over 30% in size; inactives centre near -10
* = called active by the depositor; i = inactive; ? = inconclusive; · = not tested or not shown; & = joins results of further samples; [ ] = another dose, or the depositor's remark. On the % scale 0 is the no-effect control and ±100 the full control effect; potency means the concentration at half of the fitted maximal effect.

Start of the data: the first 6 compounds as a preview:
cpd	molecule	Vaccinia mCherry	Vaccinia Venus
1	COc1ccc(NC(=O)C(C2CC2)n2c(=O)c(-c3ccccc3)nc3ccccc32)cc1 (stereo not drawn)	?	-12.6%
2	CCCN(CCC)CCCNC(=O)c1cc2c(=O)n(CC)c3ccccc3c2s1	-14.5%	-13.6%
3	O=C1C=C(c2ccccc2)C[C@H](c2cccs2)[C@H]1n1cnc([N+](=O)[O-])c1	-12.8%	-14.5%
4	CC(C)CNS(=O)(=O)c1ccc(CC(C)C)cc1	-7.0%	-1.2%
5	CC(C)N(CCc1ccncc1)C(=S)Nc1ccc(F)c(Cl)c1	-5.8%	-1.0%
6	CCOC(=O)c1cnc2c(C)cccc2c1NCCc1ccc(OC)c(OC)c1	-7.7%&-23.5%	-10.2%&-23.8%

The listing (from the top)
cpd	molecule	Vaccinia mCherry	Vaccinia Venus
1	COc1ccc(NC(=O)C(C2CC2)n2c(=O)c(-c3ccccc3)nc3ccccc32)cc1 (stereo not drawn)	?	-12.6%
2	CCCN(CCC)CCCNC(=O)c1cc2c(=O)n(CC)c3ccccc3c2s1	-14.5%	-13.6%
3	O=C1C=C(c2ccccc2)C[C@H](c2cccs2)[C@H]1n1cnc([N+](=O)[O-])c1	-12.8%	-14.5%
4	CC(C)CNS(=O)(=O)c1ccc(CC(C)C)cc1	-7.0%	-1.2%
5	CC(C)N(CCc1ccncc1)C(=S)Nc1ccc(F)c(Cl)c1	-5.8%	-1.0%
6	CCOC(=O)c1cnc2c(C)cccc2c1NCCc1ccc(OC)c(OC)c1	-7.7%&-23.5%	-10.2%&-23.8%
7	COc1ccc(CCNC(=O)COc2ccccc2[N+](=O)[O-])cc1OC	-1.5%	-14.6%
8	CC1(C(=O)NC2CCCCCCC2)CCC(=O)N1CCN1CCOCC1 (stereo not drawn)	-7.8%	4.7%
9	COc1cccc(NC(=O)c2cccn(Cc3ccccc3C)c2=O)c1	-21.0%	-28.9%
10	Oc1ccc(C[C@H]2CNC(=S)N2C[C@H]2CCCN2C[C@H](Cc2ccccc2)N2C[C@H](Cc3ccc(O)cc3)N(CCc3ccccc3)C2=S)cc1	-29.7%	?
11	CCCCc1nnc(NC(=O)CSCc2cc(=O)n3ccsc3n2)s1	8.0%[7.34 µM]	20.9%[7.34 µM]
12	CCNc1sc(S(C)(=O)=O)nc1S(=O)(=O)c1ccc(C)cc1	-6.6%	-6.8%

Overlap with the part before: 2 compounds, then new ones.
cpd	molecule	Vaccinia mCherry	Vaccinia Venus
11	CCCCc1nnc(NC(=O)CSCc2cc(=O)n3ccsc3n2)s1	8.0%[7.34 µM]	20.9%[7.34 µM]
12	CCNc1sc(S(C)(=O)=O)nc1S(=O)(=O)c1ccc(C)cc1	-6.6%	-6.8%
13	Cc1ccc(CN2CCN(/N=C/c3sccc3C)CC2)c(C)c1	-4.3%	-8.1%
14	Cc1ccc(NC2=C/C(=N/S(=O)(=O)c3cccs3)c3ccccc3C2=O)cc1	-15.2%	?
15	O=C(NCCc1nc2ccccc2[nH]1)/C(=C/c1ccco1)NC(=O)c1ccccc1Br	-19.4%	0.1%
16	O=C(c1cccs1)N1CCN(Cc2ccncc2)CC1	·	-3.9%
17	COc1ccccc1C(=O)Nc1ccc(N2CCN(Cc3ccccc3)CC2)cc1	·	?
18	CC(C)CSc1nnc2c(n1)[nH]c1ccccc12	-23.8%	7.5%
19	COc1ccc(C2C(CN3CCOCC3)C(=O)N2c2ccccc2)cc1 (stereo not drawn)	-16.9%	-13.6%
20	Cc1cc(C)n(-c2nc3cc(Cl)ccc3nc2Nc2ccc(CC(=O)O)cc2)n1	i	-4.5%
21	O=C(COc1ccccc1O)Nc1ccccc1Cl	-13.7%	-8.4%
22	CCOc1ccccc1N(CC(=O)Nc1ccc2c(c1)OCO2)S(C)(=O)=O	-13.0%	-13.7%
23	O=C(Cc1cccs1)N(c1ccc(F)cc1)C1(C(=O)NC2CCCCC2)CCCC1	i	?
24	CC1c2[nH]c3ccccc3c2CCN1S(C)(=O)=O (stereo not drawn)	-27.1%	-20.4%

Among those listed so far, 3 have an NH in an aromatic ring.
cpd	molecule	Vaccinia mCherry	Vaccinia Venus
15	O=C(NCCc1nc2ccccc2[nH]1)/C(=C/c1ccco1)NC(=O)c1ccccc1Br	-19.4%	0.1%
18	CC(C)CSc1nnc2c(n1)[nH]c1ccccc12	-23.8%	7.5%
24	CC1c2[nH]c3ccccc3c2CCN1S(C)(=O)=O (stereo not drawn)	-27.1%	-20.4%

More structures.
cpd	molecule	Vaccinia mCherry	Vaccinia Venus
25	O=C1CC2(CCN(C(=O)c3cccc(Br)c3)CC2)Oc2ccccc21	-18.1%	-27.9%
26	Nc1ccc2nc(SCC(=O)Nc3ccc(N4CCOCC4)c(Cl)c3)sc2c1	?	-29.2%
27	O=C(OCC(=O)C12CC3CC(CC(C3)C1)C2)c1cccnc1	-3.7%	-1.5%
28	CC1(C)CC(=O)c2sc(NS(=O)(=O)c3cc(Cl)ccc3Cl)nc2C1	14.7%	6.1%
29	C=CCc1ccccc1OCC(O)CN1CCN(CCN2C(=O)c3cccc4cccc(c34)C2=O)CC1 (stereo not drawn)	?	?
30	COc1cc(C2/C(=C(\O)c3ccc4c(c3)CC(C)O4)C(=O)C(=O)N2CCN2CCOCC2)cc(OC)c1OC (stereo not drawn)	-15.6%	-23.3%
31	COc1ccc(C(=O)Nc2ccc(N3CCN(C(=O)C(C)C)CC3)cc2)cc1[N+](=O)[O-]	-13.0%	-18.9%
32	Cc1ccc(Cn2ccc(NC(=O)c3noc4c3CCCCC4)n2)cc1	-23.3%	-24.7%
33	COc1ccccc1N1CCN(c2csc3ccc(Cl)cc3c2=O)CC1	-24.8%	-23.0%
34	COc1ccccc1CNC(=O)CCc1c(C)nn(-c2ccc(N3CCOCC3)nn2)c1C	-6.2%	-0.2%
35	CCc1ccc(CNC(=O)C2COc3ccc(OC)cc3C2)cc1 (stereo not drawn)	-5.5%	-0.9%
36	COCCOC1CCN(C(=O)C2CCC(=O)N(Cc3cccc(F)c3)C2)CC1 (stereo not drawn)	-14.5%	-15.7%

(listing goes on)
Each structure is followed by: Vaccinia mCherry, Vaccinia Venus
37. CCC(=O)Nc1nc(C)cc(SCC(=O)OC)n1
→ ·, -8.4%
38. CCN(C(=O)COC(=O)c1cccnc1Nc1cccc(C(F)(F)F)c1)C1CCS(=O)(=O)C1 (stereo not drawn)
→ -11.9%, -6.9%
39. Fc1cccc(Nc2c3c(nc4ccccc24)CCC3)c1
→ ?, -6.2%
40. O=C(NC(=S)N1CCCCC1)C12CC3CC(CC(C3)C1)C2
→ -17.3%, -9.5%
41. O=C(CN1CCCC1)Nc1ccc([N+](=O)[O-])cc1
→ i, -16.6%
42. CCCC(O)c1nc2ccccc2n1CCCOc1ccc(Cl)cc1 (stereo not drawn)
→ -6.6%, -20.3%
43. CCOC(=O)c1sc(NC(=O)c2cc(-c3ccccc3)nc3ccccc23)c(C#N)c1C
→ -3.8%, -20.9%
44. COC(=O)c1c(C)oc2ccc(N(C(=O)c3ccncc3)S(=O)(=O)c3ccc(C)cc3)cc12
→ 10µM*, ?
45. COC(=O)C1=C(C)N(Cc2ccco2)C(=O)N[C@@H]1c1ccco1
→ i, -12.8%
46. Cc1ccc(N2CCN(C(=O)c3c(C)oc4nc(C)nc(N5CCCC5)c34)CC2)c(C)c1
→ -18.8%, -26.5%
47. N#Cc1ccc(NC(=O)COCc2cc(-c3ccc4c(c3)OCO4)on2)cc1
→ -7.7%, -10.9%
48. Cn1c(=O)c2nc(SCC(=O)Nc3cc(Cl)ccc3Cl)n(C)c2n(C)c1=O
→ -19.2%, -21.2%
49. CCOc1ncccc1C(=O)OCC(=O)Nc1ccc(C)c(S(=O)(=O)N(C)C)c1
→ -0.5%, -7.3%
50. CCOc1ccc(OCC)c(NC(=O)Cn2ncc3c4ccccc4n(Cc4ccccc4)c3c2=O)c1
→ -8.4%, -4.9%
51. FC(F)(F)c1cnc(Oc2cccc3ccccc23)c(Cl)c1
→ -14.8%, -12.6%
52. COC(=O)c1ccccc1NC(=O)CCc1c(C)nc2c(c(C)nn2-c2ccccc2)c1C
→ -9.0%, -3.1%
53. Cc1ccc(S(=O)(=O)N(C)C[C@H]2OCc3cn(nn3)CCCC(=O)N([C@@H](C)CO)C[C@@H]2C)cc1
→ -3.0%, -13.0%
54. NC(=O)[C@H]1CC2(CC(c3cccc(NC(=O)COc4ccc(Cl)cc4)c3)=NO2)CN1C(=O)c1ccc(Cl)cc1 (stereo partly drawn)
→ 11.2µM*, 11.2µM*
55. Cc1nc(N2CCOCC2)c2c(C(=O)N(C)Cc3ccccc3)c(C)oc2n1
→ i, -2.6%
56. CCOC(=O)CC(=O)CSC1=C(C#N)C(c2ccccc2OC)CC(=O)N1 (stereo not drawn)
→ ·, -15.1%
57. Cc1ccccc1C(=O)N1CCC[C@H]1C(=O)N1CCC[C@H]1C(=O)NCc1ccccn1
→ 8.8%, 2.1%
58. O=c1[nH][nH]c2c1[C@H](c1ccc(Cl)cc1)O[C@H](CCc1ccccc1)C2
→ i, 3.4%
59. COc1cc(OC)cc(C(=O)Nc2nc(CC(=O)NC(C)c3ccccc3)cs2)c1 (stereo not drawn)
→ i, -13.4%
60. O=C(COc1ccc2ccccc2c1)N1CCN(c2ccccc2)CC1
→ -17.2%, -11.6%
61. Cn1c(=O)c2c(nc(SCC(=O)Nc3ccc(F)cc3)n2Cc2ccccc2)n(C)c1=O
→ -15.5%, -13.4%
62. NC(=O)c1cccc(-c2ccnc3c2CC(C(=O)NCC2CC2)O3)c1 (stereo not drawn)
→ i, -7.6%
63. NS(=O)(=O)c1cccnc1Nc1cccc(C(F)(F)F)c1
→ ·, ?
64. COc1ccc(OCCSc2n[nH]c(N)n2)cc1
→ ·, ?
65. CCOC(=O)N1CCN(C(=O)c2nn(-c3ccc(C)cc3)c(=O)c3c2c2ccccc2n3C)CC1
→ -11.0%, -11.6%
66. CC(O)(c1ccccc1)c1nc(-c2ccncc2)cs1 (stereo not drawn)
→ -11.2%, ?
67. CCOC(=O)Cn1c(C2CC(=O)N(c3ccc(C)cc3)C2)nc2ccccc21 (stereo not drawn)
→ ?, ?
68. CN(c1ncnc2onc(-c3cccc(Cl)c3)c12)C1CCCCC1
→ -3.0%, -1.1%
69. CC(NC(=O)Cc1ccc(F)cc1)c1ccc(F)cc1 (stereo not drawn)
→ i, -10.0%
70. CC1CC(NC(=O)c2cnc3n(c2=O)CCS3)CC(C)(C)C1 (stereo not drawn)
→ -8.7%, -16.8%
71. Cc1cccc(N2CCN(S(=O)(=O)c3ccc4c(c3)CCCN4C(=O)C3CCC3)CC2C)c1 (stereo not drawn)
→ -7.9%&-13.4%, -0.7%&-23.4%
72. CCC(=O)N1CCC1(C)C(=O)Nc1cnc2ccccc2c1 (stereo not drawn)
→ 23.7%, 3.3%
73. CCCS(=O)(=O)N1CCCC(C(=O)NCCN2CCCCC2C)C1 (stereo not drawn)
→ -17.3%[1.46 µM], -8.6%
74. CCOc1ccc(CCNC(=O)COC(=O)c2cccc(S(=O)(=O)N3CCCC3)c2)cc1OCC
→ i, -9.2%
75. COc1ccc(CNC(=O)C[C@H]2C(=O)N(CCc3ccccc3)C[C@@H]2Cc2ccccc2)cc1
→ -20.7%&-15.8%, ?
76. CCOC(=O)C1=C(O)C(=O)N(C2CCCCC2)C1
→ -9.2%, -14.6%
77. CC(Sc1nc(-c2ccccc2)cc(C(F)(F)F)n1)C(=O)N1CCC(C(N)=O)CC1 (stereo not drawn)
→ -7.7%, 4.0%
78. CCc1nn(CC(=O)N2CCC3(CC2)OCCO3)c(=O)c2cc3ccccc3n12
→ 46.4%[activator][7.34 µM], 18.3%[7.34 µM]
79. Cc1cc(C)n2nc(C(=O)OCC(=O)Nc3ccc(C)c(S(=O)(=O)N4CCOCC4)c3)nc2n1
→ -18.0%, -13.9%
80. O=c1[nH]c(-c2ccccc2)cnc1-c1ccccc1
→ -15.3%, -2.8%
81. O=C(CC[C@H]1O[C@@H](n2ccc(=O)[nH]c2=O)[C@H](O)[C@@H]1O)N1CCN(Cc2cccc3ccccc23)CC1
→ 24.0%, 2.1%
82. COc1ccc(-c2cn3nc(N4CCC(C(=O)Nc5cccc(Cl)c5)CC4)sc3n2)cc1
→ -6.0%, -18.7%
83. CC(=O)Nc1ccc(S(=O)(=O)Nc2nc3ccccc3nc2N2CCc3ccccc3C2)cc1
→ -0.3%, -15.2%
84. N#CCCn1nnc(-c2ccccc2F)n1
→ -13.8%, -2.4%
85. C=CCOc1ccc(/C(O)=C2\C(=O)C(=O)N(CCCOC)C2c2ccc(O)c(OC)c2)cc1 (stereo not drawn)
→ -12.5%[1.46 µM], -2.7%
86. COc1cn(CC(=O)Nc2cccc(C)c2)c(CN2CCCCC2)cc1=O
→ -13.2%, -14.0%

Five compounds picked at random from those above, as already listed:
Each structure is followed by: Vaccinia mCherry, Vaccinia Venus
81. O=C(CC[C@H]1O[C@@H](n2ccc(=O)[nH]c2=O)[C@H](O)[C@@H]1O)N1CCN(Cc2cccc3ccccc23)CC1
→ 24.0%, 2.1%
82. COc1ccc(-c2cn3nc(N4CCC(C(=O)Nc5cccc(Cl)c5)CC4)sc3n2)cc1
→ -6.0%, -18.7%
86. COc1cn(CC(=O)Nc2cccc(C)c2)c(CN2CCCCC2)cc1=O
→ -13.2%, -14.0%
75. COc1ccc(CNC(=O)C[C@H]2C(=O)N(CCc3ccccc3)C[C@@H]2Cc2ccccc2)cc1
→ -20.7%&-15.8%, ?
71. Cc1cccc(N2CCN(S(=O)(=O)c3ccc4c(c3)CCCN4C(=O)C3CCC3)CC2C)c1 (stereo not drawn)
→ -7.9%&-13.4%, -0.7%&-23.4%
